Source: PubChem (several laboratories)
Beta2AR agonist: activates human beta-2 adrenergic receptor causing internalization; response, % (concentration not given with the values); hit rate 0.43% among 340,000; AID 504454; Am2.2-beta2AR cells, FAP receptor internalization, flow cytometry; reference of the scale not given here; P07550;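 active = response above a set limit, near 3 SD of response in nonfluorescent compounds, cut at about 42% in these data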;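 also: stock transfer was 100 nL into about 11 µL; a reference agonist was the positive control; negative values mostly stem from fluorescent compounds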
Target sequence (P07550 whole entry, looked up): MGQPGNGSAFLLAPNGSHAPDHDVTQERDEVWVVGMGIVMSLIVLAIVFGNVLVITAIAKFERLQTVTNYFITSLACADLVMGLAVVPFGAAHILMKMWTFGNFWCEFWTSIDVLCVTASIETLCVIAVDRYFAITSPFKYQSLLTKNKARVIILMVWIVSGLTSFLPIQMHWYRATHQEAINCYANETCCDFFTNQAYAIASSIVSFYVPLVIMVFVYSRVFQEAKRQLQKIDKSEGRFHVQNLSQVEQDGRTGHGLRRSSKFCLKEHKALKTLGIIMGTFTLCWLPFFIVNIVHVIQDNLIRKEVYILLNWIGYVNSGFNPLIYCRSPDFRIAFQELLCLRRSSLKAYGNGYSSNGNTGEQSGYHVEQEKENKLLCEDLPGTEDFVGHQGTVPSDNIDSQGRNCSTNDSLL
HNF4A DNA FP: change in binding of human HNF4 alpha to DNA | P41235 | HNF4a-FITC DNA binding, fluorescence polarization, 1 h | activity change, % at 10 µM | hit rate 0.3% among 360,000; in the data active = activity change above about 30%, passing the limit was not always enough;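 also: controls were the assay level and a saturating level of protein; the project sought stronger binding though the title names inhibitors; some compounds called inactive have numbers as strong as hits; positive values seem to mean higher polarization but the record does not say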
Target sequence (P41235 whole entry, looked up): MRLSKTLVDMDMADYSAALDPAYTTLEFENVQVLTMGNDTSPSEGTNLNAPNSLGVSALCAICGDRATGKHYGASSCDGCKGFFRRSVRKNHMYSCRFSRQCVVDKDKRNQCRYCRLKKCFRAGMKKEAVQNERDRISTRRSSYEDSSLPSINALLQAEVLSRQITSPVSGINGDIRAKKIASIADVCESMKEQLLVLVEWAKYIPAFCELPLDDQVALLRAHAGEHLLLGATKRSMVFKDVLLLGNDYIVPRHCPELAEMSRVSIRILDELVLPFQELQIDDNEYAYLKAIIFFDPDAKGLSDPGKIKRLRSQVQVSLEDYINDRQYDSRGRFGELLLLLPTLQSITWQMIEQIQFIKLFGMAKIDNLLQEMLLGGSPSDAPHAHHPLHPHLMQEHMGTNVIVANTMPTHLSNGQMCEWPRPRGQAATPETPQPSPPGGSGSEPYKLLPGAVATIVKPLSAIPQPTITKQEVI
LANA-H2B inh: blocks KSHV LANA binding to histone H2A/H2B | Q9QR71 | inhibition, % (test concentration not listed) | cell-free LANA-H2A/H2B peptide, fluorescence polarization | hit rate 0.6% among 320,000; in the data active = inhibition mostly above about 10%, no sharp cut-off; inactive = mostly below about 6.7%;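 also: stock transfer was 7.5 nL into about 10 µL; 0% = median of vehicle wells and 100% = median of positive control wells; one replicate is shown; the record names a cut of 25% in any replicate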
RanGTP-Impb inh: disruptors of Ran-importin-beta complex formation – biochemical, FRET, CFP-Ran, YFP-importin-beta, homogeneous, primary screen; AID 2216; cell-free CFP-Ran/YFP-importin-beta FRET ratio; hit rate 1.1% among 300,000; inhibition, % (concentration not given with the values);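 active = most replicates above 15%; inconclusive = exactly half above 15%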;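 also: 0% = DMSO wells and 100% = Ran loaded with GDP instead of GTP; wells of about 40 µL received 100 nL stock; the first replicate is given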
Calb FLC: affects C. albicans growth with fluconazole. hit rate 0.57% among 300,000. C. albicans CaCi-2 (fluconazole-resistant clinical isolate) + fluconazole, Alamar Blue growth, 48 h. growth inhibition, % (test concentration not listed);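 active = most replicates above 75%; inconclusive = exactly half above 75%; inactive = most below 75%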;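 also: all wells also contain fluconazole at 8 µg/ml as a sub-toxic cotreatment; 0% = median of DMSO wells and 100% = median of geldanamycin control wells; wells of about 8 µL received 7.5 nL stock; the first replicate is given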
Vif A3G: HIV-1 Vif–A3G interaction blockers – biochemical, TR-FRET, GST-Vif 1-94, biotin-A3G peptide, dose response retest, primary screen (AID 1117319); one-dose inhibition, %; IC50 in µM for titrated hits; hit rate 0.57% among 260,000; TR-FRET GST-Vif / biotin-A3G peptide binding; higher % means a stronger effect; test concentration not given here; strong numbers were not always called active;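 active = above the screen mean plus three standard deviations and confirmed in dose response; inconclusive = results disagree or hit not tested in dose response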;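 also: Vif residues 1-94 fused to GST binding biotinylated APOBEC3G peptide 110-148; 0% = full assay without inhibitor and 100% = GST in place of GST-Vif; retest series ran down from 100 µM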
ALR H2O2 inh: blocks human ALR sulfhydryl oxidase activity. purified ALR, DTT oxidation, H2O2 HRP-luminol luminescence. P55789. hit rate 3.8% among 290,000. inhibition, % (no concentration beside the values);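 active = mean and each replicate at 75% or more; inconclusive = only one of the two met; inactive = neither met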;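 also: stock transfer was 7.5 nL into about 7.5 µL; 0% = neutral wells and 100% = wells with inactivated enzyme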
Target sequence (P55789 whole entry, looked up): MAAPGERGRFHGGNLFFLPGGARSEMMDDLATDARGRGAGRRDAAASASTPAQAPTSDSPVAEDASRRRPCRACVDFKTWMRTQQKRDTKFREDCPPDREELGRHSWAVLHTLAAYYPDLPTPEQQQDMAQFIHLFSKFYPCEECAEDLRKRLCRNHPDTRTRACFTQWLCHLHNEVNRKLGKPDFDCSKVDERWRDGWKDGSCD
Starred values were filed as active, the others as inactive; i = inactive; ? = inconclusive; . = no result given.

SMILES	Beta2AR agonist	HNF4A DNA FP	LANA-H2B inh	RanGTP-Impb inh	Calb FLC	Vif A3G	ALR H2O2 inh
Cc1ccc(N(CC(=O)NCCc2ccccc2)C(=O)CCC(=O)Nc2cc(C)ccn2)cc1	-6	1.2	3.1	-1.6	7	.	2
O=C(CSc1nnc(CNC(=O)c2ccccc2F)o1)Nc1ccc2c(c1)OCCO2	-5	4.3	1.8	0.1	-7	15%	.
O=c1[nH]c(SCC2CCCCO2)nc2ccccc12 (configuration not stated)	-7	1.4	5.3	1.9	-6	-6%	-1
CC1CCCN(C(=O)CSc2cnc3ccccc3n2)C1 (configuration not stated)	-2	1.1	3.2	0.3	-16	-12%	1
Cc1ccc(NC(=O)/C(=C/c2ccncc2)NC(=O)c2ccccc2)cc1	6	-0.4	-0.2	3.8	13	19%	-3
CCOc1ccc(NC2=NC(C)(C)N=C(N)N2)cc1	-1	-0.8	-0.9	2.4	-2	4%	-1
Cc1cc(=O)oc2c(C)c(OC(C)C(=O)Nc3ccc(N4CCC(C)CC4)cc3)ccc12 (configuration not stated)	83*	2.0	-3.7	0.4	-6	.	-36
Cc1ccc(N2C(=O)CC(C)CC2=O)cc1	-1	3.9	-1.9	-0.7	-20	-6%	-12
CCN1CCCC(OC(=O)c2cc(-c3ccccc3Cl)nc3ccccc23)C1 (configuration not stated)	-6	-8.2	0.4	1.0	-9	11%	-16
O=C(Nc1ccc(Cl)cn1)c1ccc2nccnc2c1	-2	2.0	-2.1	-1.4	5	.	-20

A stretch taken from the entries so far, as a working copy:
SMILES	Beta2AR agonist	HNF4A DNA FP	LANA-H2B inh	RanGTP-Impb inh	Calb FLC	Vif A3G	ALR H2O2 inh
CCN1CCCC(OC(=O)c2cc(-c3ccccc3Cl)nc3ccccc23)C1 (configuration not stated)	-6	-8.2	0.4	1.0	-9	11%	-16
O=C(Nc1ccc(Cl)cn1)c1ccc2nccnc2c1	-2	2.0	-2.1	-1.4	5	.	-20

Additional compounds follow.
SMILES	Beta2AR agonist	HNF4A DNA FP	LANA-H2B inh	RanGTP-Impb inh	Calb FLC	Vif A3G	ALR H2O2 inh
O=C(Cn1ccc(=O)[nH]c1=O)Nc1ccc(C(=O)O)c(O)c1	-56	3.7	3.1	-0.6	-1	?	.
C=CCOC(=O)/C(=C\c1ccccc1)NC(=O)c1ccc(C)cc1	0	1.3	-0.5	-1.2	-26	-6%	.
COc1ccc(-n2cnc3cc(C(=O)NC4CCCC4)ccc32)cc1	-12	-1.1	-5.8	-1.3	?	-15%	3
Cc1cc(NC(=O)c2ccc3c(c2)C(=O)N(Cc2ccccc2)C3=O)no1	-8	-3.5	-3.8	1.7	?	5%	-10
COc1ccc(Cn2c(C3CC3)nc3ccc(NC(=O)c4cccnc4)cc3c2=O)cc1	-2	3.4	-1.6	1.8	25	.	-1
Cc1c(NC(=O)CCSc2ccc(Cl)cc2)c(=O)n(-c2ccccc2)n1C	-5	-0.4	0.6	0.5	-17	4%	-14
C/C=C1\COC(C(=O)NCc2cccc(OC)c2OC)(C(F)(F)F)C=C1C=C1CCCCC1 (configuration not stated)	5	6.2	2.0	0.2	-8	.	53
O=C1Nc2ccccc2N(O)N1c1ccc(S(=O)(=O)Nc2ccccn2)cc1	5	-0.2	2.8	-0.4	26	15%	-17
Cc1ccc(Cn2ccc(C3CC3)n2)cc1	-1	-1.3	.	-2.2	-2	-4%	.
COc1cccc2cc(C(=O)C3=C(O)C(=O)N(c4cc(C)on4)C3c3cccs3)oc12 (configuration not stated)	13	5.5	4.8	1.2	-9	8%	98*
CC(=O)Nc1ccc(NC(=O)C(C)OC(=O)C2CC3C=CC2C3)cc1 (configuration not stated)	-5	0.6	4.2	?	-3	.	3
COC1=C(Nc2ccc(OC)cc2)C(=O)c2ccccc2C1=O	-19	1.8	6.4	5.4	.	26%	26
Cc1nc2nc(-c3ccccc3)nn2c(C)c1C	-7	-0.4	-0.6	0.8	-6	.	-30
CCC(C)(C)C1CCC2(CC1)NC(=O)N(CC(=O)NCCCc1ccccc1)C2=O (configuration not stated)	3	-2.5	2.7	.	.	-3%	-5
COc1ccc(OCCSc2nc3ccccc3n2CCC(=O)O)cc1	-9	-3.6	0.9	-0.1	-4	1%	0
Cc1ccc(C)c(S(=O)(=O)N2CCN(C(=O)c3ccc4ccccc4n3)CC2)c1	0	-1.2	i	.	.	-16%	-2
CS(=O)(=O)N(CC(=O)Nc1ccc2c(c1)OCO2)Cc1ccc(Cl)cc1	15	-3.3	1.8	-0.8	21	5%	11
COc1ccccc1C(C)NC(=O)c1ccccc1SCC(=O)N1CCCC1 (configuration not stated)	2	0.3	2.0	2.0	-3	1%	3
CCOC(=O)Cn1nnc(-c2ccc(SC)cc2)n1	2	1.4	2.7	-4.1	5	0%	-7
CCC1(c2ccccc2)NC(=O)N(CC(=O)NCc2ccccc2OC)C1=O (configuration not stated)	2	0.7	-0.3	-2.9	-10	.	.
O=C(N/N=C1\CCS(=O)(=O)c2ccc(F)cc21)c1ccc(O)cc1	-3	-2.6	1.0	1.2	19	.	-4
CCN(CC(=O)Nc1ccc(Cl)c(S(=O)(=O)N(C)C)c1)Cc1nc2ccccc2c(=O)[nH]1	2	2.2	-1.2	-0.6	-9	2%	0
CC(C)(C)OC(=O)N1CCC(C(=O)Nc2ccc(C(=O)NC3CC3)cc2)CC1	-7	1.9	.	.	.	-9%	.
COc1ccc(C(=O)Nc2ccc(C(=O)NCCc3ccc(OC)c(OC)c3)cc2)cc1	11	-1.1	-2.5	1.7	37	-11%	2
O=C(CN1C(=O)CCSc2ccccc21)Nc1cccc(F)c1	0	-5.3	-2.1	-4.2	0	-1%	1
Cn1c(=O)c2sccc2n2c(CCCC(=O)Nc3ccccc3)nnc12	1	-2.4	-0.2	-1.2	17	.	-2
CC(C)NC(=O)CC(=O)N/N=C/c1ccccc1F	-4	2.5	2.1	-1.0	6	-5%	0
CCCCCN(C(=O)CCC(=O)OCc1ccc(C(C)C)cc1)c1c(N)n(CCCC)c(=O)[nH]c1=O	7	1.2	1.8	-4.0	-7	2%	-6
COc1ccc(CN(C)C(=O)CCN=C2NS(=O)(=O)c3ccccc32)c(OC)c1	-2	1.6	4.0	.	.	-12%	-10
Cc1ccc([N+](=O)[O-])cc1NC(=O)CNC1CCCCC1	-9	-0.1	-2.9	-0.3	0	-8%	.
O=C(Nc1ccccc1)c1nnsc1S(=O)c1ccc(Cl)cc1 (configuration not stated)	38	2.8	-2.8	-1.2	42	-7%	98*
COc1cccc(/C=N/NC(=O)c2ccc(CN3c4cccc5cccc(c45)S3(=O)=O)cc2)c1	5	1.8	2.5	-5.0	-1	-22%	-1
CC1CCCC(C)N1CCCNC(=O)CCn1c(=O)c2cccn2c2cccnc21 (configuration not stated)	4	-2.7	4.3	4.7	4	7%	-8
O=C(CN1C(=O)C2CCCCC2C1=O)OCC(=O)c1ccc(F)cc1 (configuration not stated)	4	0.2	-9.2	.	.	2%	-1
COc1cc(CC(=O)N2CCN(S(=O)(=O)c3ccc(C)cc3)CC2)cc(OC)c1OC	-12	-4.6	5.2	.	.	.	5
C=CCn1c(SCC(=O)N2CCCCC2)nc(O)cc1=O	7	3.0	-7.8	4.7	29	-5%	1
COC(=O)C1C(c2ccc(OC)c(OC)c2)NC(c2ccc(OC)c(OC)c2)C(C(=O)OC)S1(=O)=O (configuration not stated)	-1	-0.9	-2.2	3.8	1	11%	0
COc1ccc(NS(=O)(=O)c2ccc(NC(=S)NC(=O)c3ccc(Br)cc3)cc2)nn1	7	-4.1	3.8	0.5	3	.	37
Cc1ccc(NC(=O)CCC(=O)NNC(=O)c2cccc([N+](=O)[O-])c2)cc1C	0	2.8	0.0	2.2	-6	29%	1
CCC1([N+](=O)[O-])COC(C=Cc2ccccc2)OC1 (configuration not stated)	4	-1.5	.	.	.	4%	.
CCOC(=O)c1cnn2c(C(F)(F)F)cc(-c3cn(C)nc3C)nc12	-7	-3.7	2.6	-1.6	1	-4%	-1
Cc1cccc(N2CCN(C(=O)COc3ccc4c(c3)CCC4)CC2)c1C	-3	2.8	-2.8	1.0	1	.	-30
Cc1ccc2nc(NC(=O)CN3CCN(c4ccccn4)CC3)sc2c1	-3	2.0	2.5	0.4	1	-5%	.
CC1CCCCC1NC(=O)c1cc2ccccc2o1 (configuration not stated)	-10	3.6	2.6	3.7	-2	9%	.
O=C(NCc1ccccc1Cl)c1cccc(C(F)(F)F)c1	4	-0.6	6.0	-13	-11	.	-1
CC1CCCC(NC(=O)c2ccc3c(c2)OCO3)C1C (configuration not stated)	-2	0.2	2.9	-0.1	-12	2%	1
O=C1N/C(=C/c2cccs2)C(=O)N1Cc1ccc(Br)cc1	-4	0.4	1.2	-2.2	-5	11%	0
CCN(CC)CCN1C(=O)C(O)=C(C(=O)c2cc3ccccc3o2)C1c1cccnc1 (configuration not stated)	-13	3.2	2.5	0.8	3	-6%	-7
O=C(CCC(=O)Nc1cccc([N+](=O)[O-])c1)N/N=C/c1cccs1	-7	-1.3	-2.2	.	-22	.	-2
C=CCn1c(=O)c2ccc(C(=O)NCc3ccccc3)cc2n(Cc2ccccc2Cl)c1=O	2	-2.2	-2.4	-2.8	5	?	.

The closing 2 entries of the section before open the next one.
SMILES	Beta2AR agonist	HNF4A DNA FP	LANA-H2B inh	RanGTP-Impb inh	Calb FLC	Vif A3G	ALR H2O2 inh
O=C(CCC(=O)Nc1cccc([N+](=O)[O-])c1)N/N=C/c1cccs1	-7	-1.3	-2.2	.	-22	.	-2
C=CCn1c(=O)c2ccc(C(=O)NCc3ccccc3)cc2n(Cc2ccccc2Cl)c1=O	2	-2.2	-2.4	-2.8	5	?	.
COc1ccc(NC(=O)Cn2nnc(C(=O)Nc3ccc(F)c(Cl)c3)c2N)cc1OC	2	3.4	-8.1	0.3	-10	.	-5
O=C(NCc1cccc(F)c1)C1CCC(=O)N(CCCN2CCOCC2)C1 (configuration not stated)	.	-1.5	4.2	-3.1	-8	.	5
CCN1CCC2(CCN(C(=O)c3cc(COc4cc(C)ccc4C)on3)C2)C1 (configuration not stated)	3	7.7	0.8	5.1	7	0%	-1
CCN1C(=O)C2CCCCN2c2ccc(C(=O)NCCOC)cc21 (configuration not stated)	-1	0.6	-1.9	-1.5	-1	-1%	-3
COc1ccc(C(C(=O)Nc2ccc(F)cc2)N(C(=O)Cn2nnc3ccccc32)C2CC2)cc1 (configuration not stated)	-1	-1.4	-0.3	1.6	14	14%	-5
CCOC(=O)c1cc(-c2ccc(Cl)s2)[nH]n1	0	-1.7	-2.0	3.3	1	.	-13
COc1cc(S(=O)(=O)Nc2cccnc2)ccc1Cl	0	-2.6	-3.1	-1.6	20	?	-14
CCN(CC)S(=O)(=O)c1ccc(N2CCOCC2)c(NC(=O)c2cccc3ccccc23)c1	11	-0.7	6.9	4.9	24	-1%	0
COc1ccc(N2CCN(C(=O)CN3C(=O)c4ccccc4S3(=O)=O)CC2)cc1	3	3.8	2.2	3.1	0	1%	47
c1cn2cc(CSC3CCCCC3)nc2s1	-5	-2.6	2.5	1.1	-2	73%	-7
CN(C)c1ccc(/C=C/c2nc3ccccc3c(=O)n2-c2ccc(C(=O)O)cc2)cc1	-101	151	5.0	-13	9	.	99*
CCCn1c(SCC(=O)NC)nc2sc3c(c2c1=O)CCC3	-1	-1.4	2.3	6.5	-1	.	18
Cc1ccccc1-c1nc(-c2ccc(NC(=O)c3cccs3)cc2)no1	0	0.4	-3.7	1.5	-12	-10%	-4
COc1ccccc1/C=C/C=C(\C#N)C(=O)NC(C)c1ccccc1 (configuration not stated)	6	-0.8	-1.0	2.0	5	.	-1
CC1CCC2(CC1)NC(=O)N(CC(=O)N1CCN(S(=O)(=O)c3ccc4c(c3)CCC4)CC1)C2=O (configuration not stated)	-14	-0.6	0.4	.	.	.	11

Rows are unselected, and some 6.3% of all compounds hit somewhere here.
